Mtb H37Rv: M. tuberculosis H37Rv growth inhibitors, H37Rv strain (AID 1626) | M. tuberculosis H37Rv growth inhibition; higher % means a stronger effect | one-dose inhibition, % at 10 µM; IC50 in µM for titrated hits | 0.95% of 220,000 active;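 active means confirmed in a dose series; inconclusive means inhibition above 80% but not taken into the dose series; inactive means below 80% or under 30% at every dose of the series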;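 further: bacteria incubated seven days before Alamar blue readout; 0% = bacteria only wells and 100% = bacteria with antibiotic wells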
Arbovirus inh: antivirals against arbovirus infection. 0.37% of 200,000 active. inhibition, % at 10 µM. arbovirus infection cell-based antiviral screen;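 active means inhibition from about 30%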;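 further: bluetongue infection of BSR cells; cell survival read as ATP light after 72 h; 0% = infected wells without compound and 100% = uninfected wells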
Mtb bLac sens: beta-lactam sensitization of Mtb H37Rv | M. tuberculosis H37Rv growth with meropenem, percent inhibition; hits of this screen are not shown here | inhibition, % at 25 µM | 0.27% of 330,000 active | AID 434955;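 active means about 74% or more and at least 40 points above the plate without the antibiotic, then above 30% in a dose series; inconclusive means first-round hits that could not be retested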;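 further: growth measured after seven days incubation then overnight dye step; 0% = bacteria only wells and 100% = bacteria with antibiotic; twin plates without the antibiotic show which effects depend on it; some results filed as inactive read as strong as hits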
RecA intein inh: blocks M. tuberculosis RecA intein splicing | P9WHJ3 | cell-free RecA intein splicing, fluorescence | inhibition, %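 (about 9 µM by stock and volumes)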 | 0.75% of 290,000 active | AID 2221; in the data active means inhibition above about 30%; inconclusive means no clear call, values can overlap the other calls;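 further: 0% = vehicle wells and 100% = reference inhibitor control wells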
Target sequence (P9WHJ3 whole entry, looked up): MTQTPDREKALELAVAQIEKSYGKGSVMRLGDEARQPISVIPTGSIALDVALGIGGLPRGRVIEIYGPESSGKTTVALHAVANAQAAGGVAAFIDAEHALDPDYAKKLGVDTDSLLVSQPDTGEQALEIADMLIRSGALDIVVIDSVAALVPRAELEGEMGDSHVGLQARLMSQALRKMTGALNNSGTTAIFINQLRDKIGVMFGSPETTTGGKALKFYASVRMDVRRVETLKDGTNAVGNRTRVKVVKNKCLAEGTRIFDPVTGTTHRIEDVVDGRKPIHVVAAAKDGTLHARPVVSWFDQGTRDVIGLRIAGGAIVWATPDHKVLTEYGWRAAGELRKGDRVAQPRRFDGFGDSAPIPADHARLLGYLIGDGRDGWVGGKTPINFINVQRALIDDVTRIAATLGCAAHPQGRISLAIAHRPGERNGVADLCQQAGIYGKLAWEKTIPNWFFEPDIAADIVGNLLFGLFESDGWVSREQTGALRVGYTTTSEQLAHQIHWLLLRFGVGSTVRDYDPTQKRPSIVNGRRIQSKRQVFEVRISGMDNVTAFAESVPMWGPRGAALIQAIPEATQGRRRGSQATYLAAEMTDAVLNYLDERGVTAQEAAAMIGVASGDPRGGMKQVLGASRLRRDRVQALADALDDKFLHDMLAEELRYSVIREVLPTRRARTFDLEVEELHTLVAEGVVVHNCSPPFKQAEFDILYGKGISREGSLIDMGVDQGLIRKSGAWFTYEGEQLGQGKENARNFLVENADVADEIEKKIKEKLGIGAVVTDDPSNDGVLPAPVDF
YopH PTP inh: inhibitors of Yersinia enterocolitica YopH tyrosine phosphatase | inhibition, %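 (about 10 µM by stock and volumes)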 | AID 898 | 0.16% of 140,000 active | fluorescence Ex485/Em525;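 active means inhibition of 50% or more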;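 further: controls were vehicle for no effect and minimum signal wells for full effect; inactives centre near -20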
Arbovirus inh repeat: also measured in Arbovirus inh; calls as there; inhibition, %; measured here: 10K subset replicate screen; many hits read low in the repeat;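 first of two repeat runs on a subset; 0% = infected and 100% = uninfected wells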
* = called active by the depositor; ? = inconclusive; . = not tested or not shown. This is a subset. The share of hits here may be higher or lower than overall.

SMILES	Mtb H37Rv	Arbovirus inh	Mtb bLac sens	RecA intein inh	YopH PTP inh	others
COc1ccc(NC(=O)N2CCCCCC2)cc1OC	.	.	-1	-1.5	.
O=c1cc(NCc2ccco2)c2ccccc2o1	-6%	3	-12	1.1	-4	Arbovirus inh repeat=3
CCNc1nc(NC(C)C)nc(Oc2ccc(=O)n(C)n2)n1	-6%	-2	-1	0.4	.
CC1=NS(=O)(=O)c2cc(Cl)ccc2N1	-7%	6	-2	0.9	-25
CN1CCC(N(C)C(=O)/C(C#N)=C/c2ccccc2)CC1	.	.	8	1.5	.
Cc1ccc2c(c1)c(CC(=O)Nc1ccc(F)cc1)c(C(=O)O)n2C	-7%	4	7	-0.3	-29
CCOC(=O)COc1ccc2c(=O)c(-c3ccccc3)coc2c1	<0.2µM*	.	100	1.2	.
O=C(/C=C/c1cccc(Cl)c1)NCCCN1CCOCC1	.	.	-1	-3.0	.
C=CCn1c(O)c(C(CC)=NCc2cccnc2)c(=O)[nH]c1=O	-4%	-7	4	-5.2	-37
COC(=O)CN=C1OC(=O)N2C(=O)C3=C4[C@@H](C[C@H]5C(=O)N(c6ccccc6)C(=O)[C@H]5[C@H]4[C@@]12Cc1ccccc1)[C@H]1C(=O)N(c2ccccc2)C(=O)[C@H]1[C@H]3C	-7%	.	-5	1.6	.
Cn1nc(C(F)(F)F)c(C(=O)Nc2cccc(Cl)c2)c1Cl	4%	-3	-22	-1.8	-41
O=C(c1ccc(COc2ccccc2[N+](=O)[O-])o1)N1CCCCCC1	5%	0	8	-2.6	-15
Nc1nc(SCC(=O)NC2CCCc3ccccc32)n[nH]1 (stereo unspecified)	-3%	0	-3	4.9	.
COc1ccccc1C(=O)NNC(=O)c1ccccc1Br	.	.	-3	-0.9	.
CCOc1ccc(S(=O)(=O)N2CCc3cc(OC)c(OC)cc3C2)cc1	-5%	17	-3	-1.8	-22
O=C(CSc1nc2ncc(Cl)cc2[nH]1)NCC(=O)Nc1ccc(F)c(F)c1F	7%	.	2	0.8	.
O=C(NNC(=O)C1CCN(Cc2cccc(F)c2)CC1)c1cccc(Cl)c1	-9%	-4	-5	0.9	-15
Cc1noc(C)c1C(=O)N1CCN(C(=O)c2sc3cc(Cl)ccc3c2Cl)CC1	-4%	20	-2	-2.1	-19
O=C(Nc1ncc2c(n1)-c1ccccc1OC2)c1ccc(Cl)cc1	1%	5	-14	-0.6	8
O=C(NCc1ccccc1)c1ccc(COCC(F)(F)F)o1	-3%	-1	-5	-1.0	-9
COc1ccc2c(c1)cc1n2CCN=C1NN	-4%	-7	-1	0.5	-5
COc1ccc2cc3cc(C(=O)NCc4cccnc4)oc3nc2c1	10%	-27	25	-1.2	.
CCN1CCc2nc(NC(=O)c3cc(F)c(F)cc3Cl)sc2C1	10%	-2	-7	-5.5	.
O=C(Cn1c(=O)c(C(F)(F)F)nc2ccccc21)N1CCC2(CC1)OCCO2	3%	0	-9	-6.0	-27
CC1Sc2ccc(S(=O)(=O)N3CCC(C(=O)NCc4ccc(Cl)cc4)CC3)cc2NC1=O (stereo unspecified)	.	.	94	-0.9	.
O=C(c1cccc(NS(=O)(=O)c2ccccc2)c1)N1CCN(c2ccccc2)CC1	.	.	5	1.2	.
Cc1ccc(Cl)cc1N1CCN(C(=O)COc2ccc3c(c2)CCC3)CC1	32%	-4	16	6.1	-22
COc1ccccc1NC(=O)c1nnn(Cc2ccccc2)c1NC(=O)C(F)(F)F	2%	-33	-1	2.4	6
Cc1cc(C)n(-c2cc(N3CCN(S(=O)(=O)c4ccc(Cl)cc4)CC3)ccc2[N+](=O)[O-])n1	11%	-2	-3	9.1	-9
O=C(CCc1nnc2n(Cc3ccc(F)cc3)c(=O)c3ccccc3n12)NCCN1CCOCC1	.	.	-6	1.4	.
CN(C)CCCNC(=O)C(=O)Nc1cc2c3c(c1)CCC(=O)N3CCC2	.	.	3	-3.2	.
Cc1cc(/C=N\NC(=O)CC(=O)NC2CCCCC2)c(C)n1-c1ccc(Cl)cc1	12%	-6	46	4.7	-41
CCOC(=O)c1ccccc1NC(=O)Cn1cnc2c(oc3ccccc32)c1=O	-5%	-4	?	-1.6	0
Cn1cc([N+](=O)[O-])c(C(=O)NNC(=O)c2ccc([N+](=O)[O-])cc2Cl)n1	4%	-2	-6	-2.7	.
CCc1noc(C)c1C(=O)NCCc1ccc(F)cc1	.	.	-9	0.1	.
COC(=O)Cn1c(O)c(N=NC(=O)CNC(=O)COc2cccc(C)c2)c2ccccc21	.	.	7	-2.0	.
NC(=O)c1sc2nc3c(cc2c1N)CCCCCC3	-7%	.	2	.	.
CNC(=O)c1nnn(Cc2ccccc2)c1NC(=O)C(F)(F)F	3%	-2	11	1.1	-24
C/C=C/C=C\C(=O)Nc1cccc(C2=NOC3(C2)C[C@H](C(N)=O)N(C(=O)/C=C/C)C3)c1 (stereo partly specified)	-1%	.	-16	1.0	.
O=C1Nc2ccc(Br)cc2C(c2ccc(Cl)cc2)=NC1O (stereo unspecified)	.	.	12	1.4	.
CCn1c(C)nc2cc(S(N)(=O)=O)ccc21	-4%	1	-7	-1.6	.
Cc1cc(C)c(NC(=O)Cn2ncc3ccccc32)c(C)c1	.	.	-1	3.6	.
COc1ccc(CCCc2n[nH]c(=S)o2)cc1	.	7	6	-1.5	.
O=C(O)CSc1ccc(Oc2ccc(SCC(=O)O)cc2)cc1	-8%	11	3	-0.3	.
CCOc1ccc(-n2c(-c3ccc(OC)cc3)c[n+]3c2CCCCC3)cc1	9%	15	98	1.9	-27
Cc1c(NC(=O)CCC(=O)N2CCCCC2)c(=O)n(-c2ccccc2)n1C	-9%	8	-4	1.8	-55
CC1CCN(C(=O)C(C)c2ccc([N+](=O)[O-])cc2)CC1 (stereo unspecified)	5%	2	-6	9.5	.
Cc1ccc(S(=O)(=O)N2CCN(Cc3nc4sc5c(c4c(=O)[nH]3)CCCC5)CC2)cc1	3%	4	?	-1.2	-36
O=C(COC(=O)c1ccc(Cl)cc1[N+](=O)[O-])NC(=O)c1ccccc1	.	.	-5	-2.8	.
O=C(Nc1ccc(CN2CCOCC2)cc1)c1ccc(-c2cc(Cl)ccc2Cl)o1	5%	-8	92	4.5	-11
Later entries:
SMILES	Mtb H37Rv	Arbovirus inh	Mtb bLac sens	RecA intein inh	YopH PTP inh	others
CN1CCC(=O)N(CCSc2ccccc2)CC1	.	.	-10	-1.7	.
O=C(O)CNC(=S)N(Cc1ccc(F)cc1)C1CCCCC1	-1%	0	-2	-0.1	.
Cc1ccc(Cn2nnnc2CN2CCC(O)(c3ccccc3F)CC2)cc1	-4%	2	13	2.2	-24
COc1ccccc1C(=O)NC(C)C(c1cccs1)N1CCN(C)CC1 (stereo unspecified)	2%	-2	1	0.3	-3
CNC[C@@H](CC1CCCCC1)NC[C@H](CC(C)C)NCCc1cccc(C(F)(F)F)c1	.	.	98	2.5	.
Cn1c(=O)[nH]c(=O)c2c1nc(N1CCCCC1)n2CCCSc1nc2ccccc2s1	93%	-16	1	-1.4	-9
COc1ccc(CNC(=O)C2CCN(S(=O)(=O)c3c(C)noc3/C=C/N(C)C)CC2)cc1	.	.	88	-0.4	.
CC(Oc1ccc(Cl)cc1Cl)C(=O)N(Cc1ccco1)C1CCS(=O)(=O)C1 (stereo unspecified)	5%	1	-7	-1.3	-35
Cn1c(SCC(=O)Nc2ccc(N3CCOCC3)c(Cl)c2)nnc1C(O)c1ccccc1 (stereo unspecified)	-5%	2	-2	0.1	8
O=c1[nH]c(O)c(N=Nc2ccc(SC(F)F)cc2)c(=O)[nH]1	2%	.	-5	.	.

By substructure: the compounds so far with a COOH group.
SMILES	Mtb H37Rv	Arbovirus inh	Mtb bLac sens	RecA intein inh	YopH PTP inh	others
Cc1ccc2c(c1)c(CC(=O)Nc1ccc(F)cc1)c(C(=O)O)n2C	-7%	4	7	-0.3	-29
O=C(O)CSc1ccc(Oc2ccc(SCC(=O)O)cc2)cc1	-8%	11	3	-0.3	.
O=C(O)CNC(=S)N(Cc1ccc(F)cc1)C1CCCCC1	-1%	0	-2	-0.1	.

Following part.
SMILES	Mtb H37Rv	Arbovirus inh	Mtb bLac sens	RecA intein inh	YopH PTP inh	others
COc1ccc(Cl)cc1S(=O)(=O)N1CCC(O)(c2ccc(Cl)cc2)CC1	-2%	.	5	1.8	.
CCOC(=O)Cc1c(C)nc2c(-c3ccccc3)c[nH]n2c1=O	.	4	90	-0.3	-11	Arbovirus inh repeat=-10
COC(=O)C(COC(=O)c1c(F)cccc1F)NC(=O)c1c(F)cccc1F (stereo unspecified)	.	.	6	-3.3	.
Nc1nc(CSc2nnnn2-c2ccc(F)c(Cl)c2)nc(N2CCOCC2)n1	-2%	.	0	-0.4	-32
CC1CCCN(C(=O)C2CCC(CNc3c(N4CCCCC4)c(=O)c3=O)CC2)C1 (stereo unspecified)	12µM*	.	71	-2.3	.
COc1cc(C(C)=O)ccc1OCC(=O)NCC1(N2CCCCC2)CCCCC1	-12%	9	4	0.2	.
O=C(O)c1cc(N/N=C/c2cccnc2)ccc1Cl	4%	.	-2	-3.0	.
Cc1cc(=O)nc2c3ccccc3n(C(C)C(=O)Nc3c(F)c(F)c(F)c(F)c3F)n12 (stereo unspecified)	-2%	12	-7	-0.3	.
C/C(=N\NC(=O)c1cc(Cl)ccc1O)c1ccc(Br)s1	?	-15	86	-11	-15
COc1nc(NC(=O)c2ccc(F)cc2)nc(OC)c1-c1ccccc1	.	.	8	5.0	.
CCOC(=O)CSc1nc(N2CCOCC2)c2c(c1C#N)CC(C(C)C)OC2 (stereo unspecified)	.	.	79	1.7	.
CC(=O)Nc1ccc(S(=O)(=O)Oc2ccccc2N2CCCCC2)cc1	1%	.	5	11	.
COC(=O)CNC(=O)C1Nc2ccccc2C2C=CCC12 (stereo unspecified)	-13%	.	-10	8.7	.
Cc1ccc(CS(=O)(=O)Cc2ccc(C(=O)NC3CC3)o2)cc1	.	.	-1	-11	.
CC(C)(C)C(=O)N1CCN(c2ccc([N+](=O)[O-])c(NCc3cccnc3)c2)CC1	-2%	2	-4	7.4	.
O=C(O)c1ccccc1-c1nc(-c2ccccc2)c(-c2ccccc2)[nH]1	0%	10	-1	2.1	.
CNC(=S)N1CCN(c2nc3ccccc3s2)CC1	1%	-8	1	-0.1	.
CCOc1ccc(Br)cc1CN(CC)CC	10%	.	-6	2.3	.
Brc1ccc(-c2ccc(/C=N/Nc3nncc(-c4ccccc4)n3)o2)cc1	2%	-6	99	1.4	-12
CCCc1cc(=O)oc2c(CN3CCCC3)c(O)c(Cl)cc12	-3%	2	-6	-136	-44
Cc1cccc(NC(=O)COC(=O)Cc2cccs2)c1C	.	.	4	-0.2	.
COCc1nnc(NC(=O)c2ccc(NC(=O)C(C)C)cc2)s1	2%	10	3	1.9	8
CSc1nnc(C)c(=O)n1COC(=O)/C=C/c1ccc2c(c1)OCO2	58%	1	40	0.6	.
COC(=O)c1sccc1NC(=O)CSc1ccccc1NS(=O)(=O)c1ccc(F)cc1	-4%	7	-6	1.5	-17
CCc1ccc(NC(=O)C2CC=CCC2C(=O)O)cc1 (stereo unspecified)	-3%	2	-2	-2.8	-50	Arbovirus inh repeat=2
COc1ccc(C(=O)CCc2ccc(OC)c(OC)c2)cc1	.	.	2	0.5	.
CSc1ccc(CNc2ccccn2)cc1	10%	1	-6	-0.8	-12
COc1ccc(C(=O)N2CCCC(c3ccccc3)C2)cc1 (stereo unspecified)	4%	-2	66	.	-25
O=C(COC(=O)Cc1n[nH]c(=O)c2ccccc12)Nc1c(Cl)cccc1C(F)(F)F	.	.	-5	0.8	.
Cc1c(Cl)cccc1NC(=O)[C@@]1(CC(=O)O)CC(/C=C/c2ccccc2)=NO1	.	.	-6	0.2	.
COc1ccc(CCNC(=O)C(=O)NCC2OCCN2C(=O)c2ccc(Cl)cc2)cc1 (stereo unspecified)	.	.	-8	-0.2	.
Cc1ccc2nc(NC(=O)C3CCN(C(=O)c4ccc(F)cc4)CC3)sc2c1	.	.	9	3.2	.
Cc1cccc(C(=O)CC(=O)c2cc(Cl)ccc2O)c1	?	-43	3	8.1	-20
CC(=O)c1cc2c(cc1N/C(=N/S(=O)(=O)c1ccc(C)cc1)c1ccc(Cl)cc1)OCO2	-6%	-7	-5	-13	-11
O=C(CSc1nc2c(sc3ccccc32)c(=O)n1CCc1ccccc1)NCc1ccco1	-6%	-16	6	-1.0	1
O=C(NC12CC3CC(CC(C3)C1)C2)c1cc(F)c(F)c(F)c1F	.	.	5	-1.4	.
COc1ccc(NC(=O)CSc2nccn2C)cc1S(N)(=O)=O	-3%	13	-7	-2.2	.

Random excerpt: two compounds from above
SMILES	Mtb H37Rv	Arbovirus inh	Mtb bLac sens	RecA intein inh	YopH PTP inh	others
CCOc1ccc(-n2c(-c3ccc(OC)cc3)c[n+]3c2CCCCC3)cc1	9%	15	98	1.9	-27
O=C(Cn1c(=O)c(C(F)(F)F)nc2ccccc21)N1CCC2(CC1)OCCO2	3%	0	-9	-6.0	-27

Source: PubChem BioAssay
